Screening results from PubChem.
Beta apoptosis: beta cell apoptosis inhibition | INS-1E cytokine-induced death, ATP luminescence, 48 h; percent of positive-control rescue, neutral wells zero | protection from apoptosis, % (concentration not given with the values) | AID 435005 | 0.8% of 300,000 active;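 active means all replicates at 75% or more, or half of them and the mean; inconclusive means half reach 75% but not the mean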;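 further: 0% = cytokine-treated negative control wells and 100% = positive control rescue; higher means more ATP so stronger rescue from cytokine killing; wells of about 40 µL received 100 nL stock; the first replicate is given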
AF4-AF9 inh: blocks AF4 peptide binding to human AF9. AID 651704. 0.47% of 350,000 active. P42568. AlphaScreen, biotin-AF4 peptide binding to FLAG-AF9. inhibition, % at 10 µM;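 active means every replicate reaching a set inhibition limit, whatever the replicate mean, cut at about 25% in these data; inconclusive means mean inhibition reaches that limit but some replicates miss it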;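 further: 0% = plate neutral control median and 100% = total signal loss; the record names both 10 and 1 µM as test concentration; the first replicate is given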
Target sequence (P42568 whole entry, looked up): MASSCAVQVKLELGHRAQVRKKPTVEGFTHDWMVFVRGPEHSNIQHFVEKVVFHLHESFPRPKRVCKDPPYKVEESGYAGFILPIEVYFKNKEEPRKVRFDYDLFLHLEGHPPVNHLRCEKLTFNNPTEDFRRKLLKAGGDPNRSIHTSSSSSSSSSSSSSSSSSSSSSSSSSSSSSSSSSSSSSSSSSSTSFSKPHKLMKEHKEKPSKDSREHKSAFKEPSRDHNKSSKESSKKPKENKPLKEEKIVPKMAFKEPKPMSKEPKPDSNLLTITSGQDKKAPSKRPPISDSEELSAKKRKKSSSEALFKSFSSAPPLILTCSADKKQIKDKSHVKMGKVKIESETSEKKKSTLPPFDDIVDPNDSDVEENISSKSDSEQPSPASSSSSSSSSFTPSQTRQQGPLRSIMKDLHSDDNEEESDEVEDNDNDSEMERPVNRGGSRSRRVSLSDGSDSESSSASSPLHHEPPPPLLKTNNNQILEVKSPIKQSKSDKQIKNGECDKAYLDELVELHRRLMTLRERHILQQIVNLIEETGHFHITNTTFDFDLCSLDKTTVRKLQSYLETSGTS
FGF22 binding: FGF22 (human) thermal shift binding | Q9HCT0 | recombinant FGF22 thermal shift, SYPRO orange fluorescence; percent of sucrose octasulfate shift, DMSO zero | calls only at 9.99 µM | 1.5% of 340,000 active | AID 651658;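 active means melting point raised past a set limit in the mean and every replicate; inconclusive means no clear call; three in four hits are not shown here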
T cruzi repl: blocks replication of Trypanosoma cruzi; 1.4% of 300,000 active; inhibition, % (no concentration beside the values); T. cruzi beta-gal in NIH3T3, luminescence, 90 h;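 active means mean inhibition across valid replicates above about 55%, limit read from the data; inconclusive means mean below that limit but half or more replicates reach it; inactive means mean below it, under half of replicates reach it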;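 further: signal also drops with host cell toxicity which is not excluded here; 0% = plate median of DMSO wells and 100% = zero luminescence signal; higher percent means less beta-gal luminescence so fewer parasites; stock transfer was 50 nL into about 50 µL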
Ecoli growth: inhibitors of Escherichia coli growth | 0.21% of 330,000 active | AID 1053175 | OD600, 23 h; active compounds read low | OD600 absorbance (concentration not given with the values);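 active means OD600 absorbance below the run mean of sample wells minus 3.6 SD, in any replicate, cut at about 0.56 in these data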;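 further: stock transfer was 300 nL into about 60 µL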
rRNA inh HTS: inhibits bacterial ribosomal RNA function over humanized ribosomes | 1.6% of 350,000 active | E. coli WT GFP vs humanized-ribosome RFP mutants, fluorescence, 24 h; active compounds read low; DMSO median 0, no signal -100 | GFP signal change (wild-type ribosome), % (test concentration not listed);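 active means significant combined selectivity score with lowered wild-type GFP, culture density cut under 30%, mutant RFP and density less affected; inactive means any of these conditions unmet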; further: one replicate is shown; some compounds called inactive have numbers as strong as hits
UCH37 inh: blocks the human deubiquitinase UCH37; 0.33% of 330,000 active; purified proteasome/UCH37, Ub-AMC cleavage fluorescence; inhibition, % (concentration not given with the values);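 active means mean of two replicates above 20%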;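 further: 0% = compound-free wells with enzyme and 100% = wells lacking proteasome; stock transfer was 100 nL into about 20 µL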
Target sequence (Q9Y5K5 whole entry, looked up): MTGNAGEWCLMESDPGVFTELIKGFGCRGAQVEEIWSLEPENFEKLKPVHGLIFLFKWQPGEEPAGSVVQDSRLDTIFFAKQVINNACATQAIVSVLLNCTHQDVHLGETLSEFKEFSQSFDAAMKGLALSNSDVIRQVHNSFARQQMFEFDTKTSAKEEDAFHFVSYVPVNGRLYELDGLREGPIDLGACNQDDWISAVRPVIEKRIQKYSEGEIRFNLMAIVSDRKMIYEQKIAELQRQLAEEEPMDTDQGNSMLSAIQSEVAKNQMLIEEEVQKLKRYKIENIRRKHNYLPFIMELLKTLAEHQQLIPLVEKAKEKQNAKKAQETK
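System: Proteasome-associated human UCH37 deubiquitinase; Input: 0.15 nM proteasome in added enzyme buffer; Also added: Ub-AMC substrate from 1 µM stock; Incubation: 30 min compound-proteasome preincubation then 25 min substrate reaction, room temperature; Detection: fluorescence, ex 355 nm, em 460 nm; Read-out: % inhibition of Ub-AMC cleavage fluorescence; Benchmarks: no-proteasome and no-compound wells.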
A1 inh: inhibitors of the anti-apoptotic protein A1, read as caspase activation; MEF A1-2A-BIM cells, Caspase-Glo 3/7 luminescence, 3 h; percent of clofoctol response, vehicle zero; caspase activation, % (no concentration beside the values); 0.066% of 330,000 active;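 active means over half of replicate activation scores above 10%, or exactly half above 10 with the replicate mean above 10; inconclusive means replicate mean below 10 yet half the replicates above 10; inactive means over half of replicates below 10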;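 further: wells of about 30 µL received 50 nL stock; many hits fall short of the cut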
rRNA inh HTS OD600: further read-out of rRNA inh HTS, marked with its call; OD600 change, %; measured here: OD600 growth;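 optical density of the mix in the first replicate; 0 = DMSO median and -100 = no signal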
rRNA inh HTS RFP: recorded beside rRNA inh HTS, whose call it bears; RFP signal change, %; measured here: RFP humanized mutant strains;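 first replicate; 0 = DMSO median and -100 = no signal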
Active calls of the source: *; i = inactive; ? = inconclusive; . = not tested or not shown. Some of the compounds tested; rates above refer to the full screens.

Below each compound: Beta apoptosis, AF4-AF9 inh, FGF22 binding, T cruzi repl, Ecoli growth, rRNA inh HTS, rRNA inh HTS OD600, rRNA inh HTS RFP, UCH37 inh, A1 inh
- Cc1ccccc1CNC(=O)C(=O)NCC1CCCN1S(=O)(=O)c1ccccc1 (centres undefined)
 : 3, -0.7, i, 12, 0.68, -2, -1, -0.7, 0.7, 0.2
- CC(C)Cn1c(N)c(C(=O)COC(=O)C2CCCN2C(=O)c2cccs2)c(=O)n(C)c1=O (centres undefined)
 : -4, -0.3, i, ., 0.69, ., ., ., 1.4, 1.0
- N/C(=N\OC(=O)c1cccc(F)c1)c1cccc([N+](=O)[O-])c1
 : -2, -2.1, i, -5, ., 3, 12, -0.2, ., -3.7
- Cc1ccc(OCc2ccc(C(=O)Nc3ccc(C(N)=O)cc3)o2)c([N+](=O)[O-])c1
 : -6, -0.3, i, -8, 0.74, 7, 5, 0.3, 2.4, 0.3
- Cc1cc(C(=O)NC2CCCC(C)C2C)c2ccccc2n1 (centres undefined)
 : 1, -8.9, i, -2, 0.7, 5, 6, 2.1, -1.7, 0.7
- C[C@H](NS(=O)(=O)c1ccc(Cl)cc1)C(=O)OCC(=O)N1CCOCC1
 : -1, -4.7, i, ., 0.67, 34, 29, 5.3, 3.5, 1.0
- CC(C)N(C(=O)[C@H]1C[C@H](CC(=O)NCCCN(C)C)C(=O)N2CCc3c([nH]c4cc(-c5ccco5)ccc34)[C@]12C)C(C)C
 : ., 29*, i, ., 0.68, -35, -70, -0.8, -10, .
- Cn1cccc1Cc1nnc(SCC(=O)NCCc2ccccc2)n1C
 : -1, 1.2, i, -16, 0.73, 2, 12, 0.3, 2.1, -0.1
- Cc1noc(C)c1C(=O)OC(C)C(=O)N1CCc2ccccc21 (centres undefined)
 : -3, -4.2, i, ., 0.69, 12, 1, -0.8, -1.4, 0.4
- CC(=O)C1=C(C)OC(N)=C(C#N)C1c1cc2cc(C)c(C)cc2nc1Cl (centres undefined)
 : -2, ., ., -10, 0.69, ., ., ., 0.5, 2.3
- COC(=O)c1sc(N2C(=O)C(O)=C(C(=O)c3ccc(C)o3)C2c2ccc(F)cc2)nc1C (centres undefined)
 : 1, ., ., -8, 0.66, ., ., ., 2.7, 0.1
- COc1ccc(OC)c(NC(=O)CCNS(=O)(=O)c2ccc3c(c2)c(=O)n(C)c(=O)n3C)c1
 : 1, -1.1, i, 5, ., 9, 14, -7.1, ., 1.5
- Cc1ccc(-n2nc(C)c(C3(O)C(=O)N(C)c4ccccc43)c2N)cc1 (centres undefined)
 : -7, 2.2, i, -2, 0.68, 11, 0, -2.8, 3.0, 0.9
- N/C(=N\OC(=O)Cc1ccc(-c2ccccc2)cc1)c1ccccn1
 : 0, ., ., 0, 0.71, ., ., ., 5.9, -1.6
- CCCCNc1oc(-c2cccs2)nc1S(=O)(=O)c1ccccc1
 : 11, ., ., 8, 0.74, ., ., ., -29, 0.1
- Cn1c(=O)n(C)c2cc(S(=O)(=O)NCc3ccco3)ccc21
 : -3, ., ., 5, 0.7, ., ., ., 19, -1.0
- CC(=O)c1c(C)[nH]c(C(=O)N2CCN(S(=O)(=O)c3ccc(F)c(F)c3)CC2)c1C
 : -1, -9.5, i, -17, 0.63, -3, -5, -1.2, -2.3, -0.2
- O=C1CN(C(=O)COc2c(Cl)cccc2Cl)c2ccccc2N1
 : 2, -1.0, i, -9, 0.73, 2, -16, -0.8, 3.8, -0.1
- CC(C)c1cc(CNC(=O)CCc2nnc(CCCCc3ccccc3)o2)on1
 : -2, -5.5, i, -13, 0.69, 2, 2, 13, 4.3, 0.1
- O=C(c1ccc(Br)o1)N1CCN=C1SCc1cccnc1
 : ., -6.4, i, 2, 0.78, 10, 12, 3.4, 4.4, -0.1
- CSCCNCc1c(C(=O)N2CCOCC2)nc2c(C)cccn12
 : -1, 1.5, i, -12, 0.69, 11, 8, -1.4, 1.1, -0.2
- C=CCn1c(SCC(=O)c2[nH]c(C)c(C(=O)OCC)c2C)nc2scc(-c3ccccc3)c2c1=O
 : -4, ?, i, 25, 0.72, 13, -3, -0.7, -1.3, 0.7
- COc1ccc(Cl)cc1NC(=O)C(=O)NCc1ccncc1
 : ., -0.3, i, 2, 0.7, -6, -7, -2.6, 4.9, 0.2
- Oc1c(Br)cc(Br)cc1/C=N/Nc1ccc(Cl)nn1
 : 98*, -2.0, i, 55*, ., -2, 1, -1.8, ., 0.1
- CCOc1cc(NC(=S)Nc2ccc(Cl)cc2)c(OCC)cc1NC(C)=O
 : -2, 6.4, i, 18, 0.66, -59, -76, 8.0, 5.8, 1.1
- C/C(=N/NC(=O)C1CCCN1C(=O)c1ccc([N+](=O)[O-])cc1)c1ccc(Br)cc1 (centres undefined)
 : ., 5.2, i, 13, ., -2, 10, -2.3, ., .
- COc1ccc(C(C(=O)NC2CCCC2)N(Cc2ccccc2)C(=O)c2nsc(Cl)c2Cl)cc1 (centres undefined)
 : 15, -5.9, i, 21, 0.75, -2, 6, 0.5, 2.1, 0.9
- CCN(CC)c1ccc(NC(=S)NCC2CCCO2)cc1 (centres undefined)
 : 0, 15, i, -14, 0.58, -4, -3, -1.1, -1.9, 0.8
- CC1CCN(c2ccc([N+](=O)[O-])cc2C(N)=O)CC1
 : 5, 0.3, i, -6, 0.65, 7, 1, 0.9, 14, 0.6
- O=C(Cc1cccs1)OCC(=O)c1ccco1
 : 1, ., ., 0, 0.76, ., ., ., -0.9, 0.0
- CCN(CC)c1ccc(/C=N/NS(=O)(=O)c2ccc(C)c([N+](=O)[O-])c2)cc1
 : -7, 1.1, i, 4, ., -1, 6, -3.5, ., 0.5
- COc1ccc(CCN2CC(C(=O)N(C)Cc3ccccc3OC)CCC2=O)cc1 (centres undefined)
 : -2, -13, i, 6, 0.6, 5, 9, 6.7, 0.3, -1.0
- CCC(=O)N1CCN(c2ccc(NC(=O)COc3ccc(CC)cc3)cc2)CC1
 : -8, 0.8, i, -6, 0.66, 6, 13, 0.1, 6.2, 0.0
- CC(=O)Nc1cccc(Nc2nc(-c3ccccc3)nc3ccccc23)c1
 : 1, -1.9, i, 24, 0.7, -22*, -13*, -2.9*, -80, 1.5
- Cc1c(C#N)c(N)nc(Cl)c1C#N
 : -15, 0.2, i, -9, 0.7, 22, 9, 0.0, 1.8, 0.9
- Cc1ccc2nc(NC(=O)CCCc3nc4ccccc4s3)sc2c1
 : -6, ., ., 3, 0.72, ., ., ., -0.3, -1.6
- Cc1ccc(OCC(=O)N2CCCCC2)c(Br)c1
 : -6, ., ., 4, 0.66, ., ., ., -0.5, -0.5
- CN1CCC(NC(=O)Nc2ccc(Br)cc2)CC1
 : 1, -4.3, i, 61*, 0.66, 15, -5, -0.4, 4.6, 1.3
- Cc1nn(C)cc1C(C)Nc1nc2nonc2nc1N1CCCCC1 (centres undefined)
 : 0, -0.3, i, 0, 0.71, 7, 0, -0.6, 4.5, 0.0
- CCN(CC)c1nc2n(c(=O)n1)CCO2
 : -4, ., ., 1, 0.66, ., ., ., 4.8, 0.6
- O=C(NN1CCCCC1)c1cccc(COc2ccc(Cl)cc2)c1
 : 2, -3.4, i, -38, 0.66, 19, 25, 0.6, -1.2, -0.4
- NC(=S)NN=C(c1ccc(F)cc1)C1CC1
 : ., -0.9, i, ., 0.72, 10, 5, -0.6, 0.5, .
- c1ccc(C2Nc3ccccc3Oc3ccccc32)cc1 (centres undefined)
 : 2, ., ., 14, 0.72, ., ., ., 2.2, -0.8
- CCc1cc2c(=O)[nH]c(N3CCCC3)nc2s1
 : -1, ., ., -12, ., ., ., ., 2.8, 1.0
- Nc1nc(Nc2ccccc2)nc(NCc2ccco2)c1[N+](=O)[O-]
 : -8, ., ., 9, 0.66, ., ., ., 7.2, -1.0
- CCCCNC(=O)Cn1cnc2c(cnn2-c2ccc(C)c(C)c2)c1=O
 : -3, ., ., -15, 0.73, ., ., ., 2.6, 2.9
- COc1cccc(CNc2ncc(-c3ccccc3)n2C)c1
 : -6, 1.7, i, 4, 0.67, 9, 8, -0.4, 2.2, -0.4
- CC(C)(C)S(=O)(=O)N1Cc2cc(=O)n(Cc3ccccc3)c(CCO)c2[C@@H]1CCO
 : ., 0.9, i, ., 0.65, 18, 7, 1.0, -28, .
- Cc1cc(C)c(S(=O)(=O)N2CCN(C(=O)C(C)Cn3cncn3)CC2)c(C)c1 (centres undefined)
 : 1, -0.6, i, -2, 0.69, 2, 1, -0.5, 2.0, -0.2
- CC(O)CO (centres undefined)
 : -3, ., i, ., 0.68, 1, 8, 3.6, 4.1, -0.2
- COc1cc2ccccc2c2c1CCCC2=O
 : -7, ., ., 4, 0.73, ., ., ., -1.1, 0.0
- Cc1cccc2sc(NC(=O)C3CSC4(C)CCC(=O)N34)nc12 (centres undefined)
 : 8, -1.5, i, 7, 0.71, -9, -7, 3.3, 5.4, -0.1
- COc1ccc(C(CC(=O)O)N2C(=O)CCC2=O)cc1 (centres undefined)
 : -10, -1.3, i, -13, 0.62, 3, 13, 3.0, 0.7, 0.4
- CCCOc1ccc(Cl)cc1CNc1ccccc1
 : -2, ., ., 8, 0.69, ., ., ., 0.3, 0.7
- C/C=C/c1ccc(OCC(=O)Nc2cc(C(F)(F)F)ccc2N2CCOCC2)c(OC)c1
 : -6, -0.3, i, -1, 0.69, 20, 15, 2.9, 5.2, 0.5
- CC(=O)c1ccc(NC(=O)Cn2cnc(S(=O)(=O)N3CCc4ccccc43)c2)cc1
 : 0, -0.6, i, -1, 0.67, -4, -2, -6.3, 2.7, 0.6
- CCOC(=O)Cn1c2ccccc2c2nc3ccccc3nc21
 : 0, ., ., 1, 0.71, ., ., ., 0.7, -3.0
- CCOc1ccc(CC(=O)Nc2nccs2)cc1OCC
 : 0, 0.8, i, 3, ., -7, 0, -1.5, ., -1.0
